# GLA inh pH 4.5 – inhibitors of human alpha-galactosidase A at pH 4.5. purified enzyme, 4-MU-alpha-Gal fluorescence, pH 4.5. AID 1467. 230,000 tested, under 10 active. P06280. activity change, negative = inhibition, % at 105 µM; inconclusive = small, poorly fitted or top-dose-only inhibition, or a rising curve; inactive = flat fitted curve, though single readings scatter; no compound was filed as active;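 also: 0% = full activity with enzyme and -100% = basal without enzyme; dose as in the result columns while the protocol names 77 µM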
# Target sequence (P06280 whole entry, looked up): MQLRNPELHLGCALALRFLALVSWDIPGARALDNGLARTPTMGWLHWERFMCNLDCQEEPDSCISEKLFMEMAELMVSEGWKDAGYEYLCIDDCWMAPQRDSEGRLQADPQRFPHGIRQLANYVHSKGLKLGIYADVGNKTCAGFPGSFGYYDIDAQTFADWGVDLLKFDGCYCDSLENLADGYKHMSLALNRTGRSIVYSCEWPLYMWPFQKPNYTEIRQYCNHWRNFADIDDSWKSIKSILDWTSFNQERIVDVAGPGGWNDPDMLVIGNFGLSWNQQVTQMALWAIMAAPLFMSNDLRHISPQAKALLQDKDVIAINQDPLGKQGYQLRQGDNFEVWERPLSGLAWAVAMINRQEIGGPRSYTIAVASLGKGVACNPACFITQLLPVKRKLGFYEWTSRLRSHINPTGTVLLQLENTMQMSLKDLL
# Rango release inh – inhibitors of RanGTP-induced Rango-importin beta complex dissociation; O95149+P62826; Biochemical FRET Rango-importin beta, RanGTP-induced dissociation; Potency, µM (top dose mostly 46.1 µM), for the others: top-dose activity change, negative = inhibition; 340,000 tested, 0.071% active; active means falling FRET ratio curve, often poorly fitted, with flat reads before Ran was added; inconclusive means other falling curves, or compound fluorescence or quenching; inactive means flat or rising ratio curve;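 also: potency is read from the fitted curve at half-maximal effect; % of control where 0% means no effect; nearly all actives have a fitted effect of over 45% in size; -100% = wells without RanGTP and RCC1; the record marks most hits as doubtful in a second field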
#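 Quantitative HTS using a FRET biosensor: 0.1 uM Rango, 0.25 uM importin beta, 0.6 uM Ran, 2 mM GTP, 0.2 uM RCC1 final, PBS with DTT, Tween-20 and BSA. Post-read taken 45 min after Ran addition.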
# Rango complex inh – prevents formation of the Rango-importin beta complex | Potency, µM (highest dose often 92.2 µM), without a hit: top-dose inhibition of complex formation | Q14974 | Rango CFP/YFP FRET sensor + importin beta, 45 min | AID 540263 | 340,000 tested, 0.031% active; active = rising FRET ratio curve, often small or poorly fitted; inconclusive = mostly compound fluorescence or quenching in the first reads; inactive = flat curves in all reads;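 also: potency is read from the fitted curve at half-maximal effect; 0% = DMSO wells and 100% = buffer wells lacking importin beta; nearly all actives have a fitted effect of over 15% in size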
#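 Inhibition scored from the CFP 486 nm/YFP 530 nm FRET ratio 45 min after adding 0.125 microM importin beta to 50 nM Rango biosensor preincubated 5 min with compound (room temperature, PBS with DTT, Tween-20, BSA). No-importin wells as positive control.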
# miR-21 reporter – raises the signal of a miR-21 reporter; HeLa miR-21 FLuc reporter, luciferase, 48 h; Potency, µM (doses to about 38.3 µM), without a hit: at the top dose reporter change, positive = more light; 340,000 tested, under 10 active; active = well fitted rising curve with a large enough effect; inconclusive = small, poorly fitted or top-dose-only effect; inactive = no such curve, though single readings can be large or run the other way;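 also: % of control where 0% means no effect; miR-21 action dims this reporter so a rising signal means less miR-21 action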
#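 HeLa cells stably expressing CMV-driven firefly luciferase with a downstream miR-21 binding sequence, endogenously expressing miR-21, were treated with titrations (up to about 40uM final) for 48 hours at 37 degree Celsius. Luciferase luminescence was read after lysis.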
# An asterisk follows results filed as active; ? = inconclusive; . = no result given; & = joins results of further samples; [ ] = dose if it differs, or a comment. Some of the compounds tested; rates above refer to the full screens.
SMILES,GLA inh pH 4.5,Rango release inh,Rango complex inh,miR-21 reporter
C=CCn1c(SCC(=O)Nc2c(C)nn(Cc3ccccc3)c2C)nnc1C(O)c1ccccc1 (stereo not given),-1.9,5.2%,4.6%,-4.3%
COc1ccc(Cl)cc1NC(=O)CCc1nc(-c2ccccc2F)no1,14.4,8.4%,-0.1%,10.0%&-0.4%
COc1cc(OC)cc(C(=O)NNC(=O)CCNC(=O)c2ccc(Br)cc2)c1,.,-3.5%,3.7%,.
CN(C)CCCNC(=S)N(Cc1cccs1)Cc1cc2cc3c(cc2[nH]c1=O)OCCO3,-1.0,-15.5%,-0.7%,-18.3%
CC(C)N(Cc1nc(COc2ccccc2)no1)Cc1nccn1C,7.3,1.5%,1.3%,-4.3%
CCn1c(-c2ccco2)n[nH]c1=S,1.5,-17.7%,-4.4%,-4.9%
O=C(Nc1nncs1)c1cc(S(=O)(=O)N2CCCCC2)ccc1Cl,.,-0.5%,?,1.7%
COCCNC(=S)NC12CC3CC(CC(C3)C1)C2,1.7,13.5%,0.6%,-16.6%
COc1ccc(OC)c(NC(=O)C2C3CCC(O3)C2C(=O)O)c1 (stereo not given),-17.2,.,.,-20.3%
Cc1ccc(S(=O)(=O)C2(C(=O)Nc3ccc4c(c3)OCO4)CC2)cc1,-3.6,12.1%,0.2%,-8.0%
CCc1ccc(CN2C(=O)c3ccccc3C2C(=O)NC(C)CC)cc1 (stereo not given),.,-23.1%,2.0%,1.8%
O=C(Oc1ccc(/C=N/O)cc1)c1ccccc1,-1.9,17.6%,1.8%,-18.8%
O=C(NC1CCCCC1)C(c1cccnc1)N(C(=O)CCl)c1ccc(F)cc1 (stereo not given),4.8,-16.7%,1.8%,?
CC(C)CN(C(=O)c1nn(C)c(=O)c2ccccc12)c1nc2ccccc2s1,4.0,-7.5%,-2.8%,-12.3%
CC1=CC(=O)C(C(C)=Nc2ccccc2Cl)C(=O)O1 (stereo not given),4.5,-7.3%,-1.5%,-0.6%
COc1cccc(CNc2cccc(C(F)(F)F)c2)c1O,2.7,-1.2%,-4.3%,6.2%
O=C(Nc1cccc(O)c1)c1cc2nc(-c3ccccc3)cc(-c3ccccc3)n2n1,4.5,?,?,-8.2%
c1ccc(C(c2ccccc2)c2nc(-c3cccnc3)no2)cc1,-1.4,-8.4%,2.8%,-22.3%
COc1cnc(-c2ccccc2)nc1Oc1ccccc1C,-0.8,5.0%,-1.1%,-0.7%
CS(=O)(=O)c1cnc(-c2ccccc2)nc1-c1ccc(Cl)c(Cl)c1,9.8,-2.6%,-1.4%,-0.9%
COc1ccc(S(=O)(=O)Nc2cccc3ccc(O)cc23)cc1,.,7.7%,2.1%,.
CC(C)c1ccccc1NC(=O)CSc1n[nH]c(=O)n1C1CC1,.,0.3%,-1.9%,.
CC(C)(C)C#CCn1c(/C=[N+](\[O-])C2CCCCC2)nc2ccccc21,.,4.9%,-0.1%,-6.4%
O=C(NCCn1cccn1)c1ccc(OC2CCN(CCc3ccccc3)CC2)cc1,0.6,15.1%,-0.3%,-16.4%
Cc1ccc2c(c1)c1c(n2C)C(=O)CCC1,-3.0,-9.6%,2.6%,-4.0%
# (next part)
SMILES,GLA inh pH 4.5,Rango release inh,Rango complex inh,miR-21 reporter
CC1(C)Cc2c(sc(NC(=O)C(=O)N3CCOCC3)c2C(N)=O)CO1,.,3.7%,1.4%,0.5%
CN(CC(=O)Nc1ccc2c(c1)OCCO2)S(=O)(=O)c1ccc(F)cc1,.,-22.8%,0.3%,-39.3%
CC(C)(C#CCN1CCCCC1)OCCOC(c1ccccc1)c1ccccc1,-3.4,3.8%,0.8%,13.9%
CCOc1cc(C2CC(=O)N3CN(C4CCCCC4)CSC3=C2C#N)ccc1O (stereo not given),-16.2,-18.1%,0.8%,-0.6%
COc1ccc(CNC(=O)CCCNS(=O)(=O)c2cccc3nonc23)cc1,-1.1,4.8%,3.5%,-2.0%
CCOC(=O)Cc1csc(NS(=O)(=O)c2ccc3c4c(cccc24)C(=O)N3CC)n1,-2.8,-3.0%,-2.3%,-4.9%
CC1(C)CC(NC(=O)c2c(N)no[n+]2[O-])CC(C)(C)N1,-0.8[21.1 µM],-8.4%,-1.1%,1.9%
O=C(N1CCN(c2ccccc2F)CC1)C1(S(=O)(=O)c2ccc(Cl)cc2)CC1,.,-13.4%,-1.2%,0.5%
Nc1nnnn1/N=C/C(Br)=C/c1ccccc1,-2.0,-2.1%,0.2%,?
CCS(=O)(=O)N1CCC(c2nc(-c3ccc(C)cc3)no2)CC1,1.9,-3.4%,-0.6%,-20.1%
Cc1noc(C)c1C(=O)OCC(=O)NC1CC1,-0.3,-4.2%,-0.1%,-4.9%
CCC1=[N+](C)c2cccc3cccc(c23)N1C,-2.0,2.4%,-1.1%,6.7%
O=C(c1ccc2oc(CCCc3ccccc3)nc2c1)N1CCCC(CCCO)C1 (stereo not given),.,-0.4%,-2.2%,-16.8%
Cc1ccc(-c2cc(C(=O)NCCN3CCOCC3)no2)cc1,-1.3,-3.0%,-0.9%,-16.8%
COc1ccc(OC)c(S(=O)(=O)Nc2cc3c4c(c2)CC(=O)N4CCC3)c1,.,9.1%,-1.9%,.
Cc1cc(C(F)F)n2ncc(C(=O)NCCc3ccccc3Cl)c2n1,-6.1,-2.3%,-5.1%,-25.3%
COCCn1c(=O)[nH]c2cc(C(=O)N3CCN(c4ccc(OC)cc4)CC3)ccc2c1=O,.,-17.5%,0.6%,3.0%
Cn1c(=O)c2c(ncn2CC(=O)OCC(=O)NNC(=O)c2ccc(Cl)cc2)n(C)c1=O,.,-2.9%,-2.6%,.
O=C(Cc1ccccc1)NCC(=O)N1CCN(c2ccccc2F)CC1,.,-0.5%,3.2%,-5.4%
CC1CCc2nc(NC(=O)c3ccco3)sc2C1 (stereo not given),-2.5,17.0%,8.9%,25.0%
Cc1cc(C)cc(-n2ccnc2SCC(=O)Nc2nccs2)c1,0.5,9.1%,?,1.1%
O=C1Cc2ccccc2C(=O)N1OCc1ccc(Cl)cc1,-3.1,0.9%,-4.2%,2.5%
O=C(c1ccccc1)N1CCN(C(=O)c2ccc3c(c2)OCCO3)CC1,10.3,-3.8%,-1.8%,0.1%
CC(NC(=O)C12CC3(C)CC(C)(CC(C)(C3)C1)C2)C(=O)O (stereo not given),6.0,-9.4%,0.6%,-1.9%
O=S(=O)(Cc1noc(-c2ccc(OC(F)(F)F)cc2)n1)c1ccc(F)cc1,-3.6,-5.3%,3.2%,-21.1%
# Further records
SMILES,GLA inh pH 4.5,Rango release inh,Rango complex inh,miR-21 reporter
CCOC(=O)c1c(C)[nH]c(C(=O)OCC(=O)N(C)c2c(N)n(Cc3ccccc3)c(=O)[nH]c2=O)c1C,.,-8.4%,?,.
CCOC(=O)c1[nH]c(C)c(C(=O)Nc2ccc(C)cc2C)c1C,4.0,-2.8%,1.1%,14.2%
CCOC(=O)C1=C(COC(=O)c2ccc(C)c(S(=O)(=O)N3CCOCC3)c2)NC(=O)NC1C (stereo not given),.,3.3%,0.8%,.
CC/C=C/C(=O)N1CC2(CC(c3cccc(NC(=O)CC)c3)=NO2)C[C@H]1C(N)=O (stereo not given in full),1.2,1.5%,0.8%,4.9%
COc1ccc(NC(=O)c2cc3sccc3n2Cc2ccc(F)cc2)cc1OC,-2.9,-18.2%,0.4%,-31.1%
CCOc1ccc(C(=O)N2CCCC2)cc1OC,-1.8,-0.7%,0.6%,-9.7%
CCC1=C(OC(=O)N(CC)CC)N2C(=O)OC(=NCCc3c[nH]c4ccccc34)[C@]2(Cc2ccccc2)[C@H]2C1=CC[C@H]1C(=O)N(c3ccccc3)C(=O)[C@H]12,2.7&2.6,1.6%,0.2%,3.6%
COC(=O)C1=C(C)N(CCCCCC(=O)O)C(=O)NC1c1ccccc1 (stereo not given),.,11.4%,-2.4%,.
CN(C)c1ccc(C=c2c3cc([N+](=O)[O-])ccc3n3c2cc(-c2ccccc2)[n+]3C)cc1,.,-5.0%,4.9%,.
O=S(=O)(c1ccc(F)cc1)N1CCN(Cc2cc3c(cc2Br)OCCO3)CC1,.,-9.7%,-3.0%,.
CC(C)Cn1c(N)c(C(=O)CSc2nnnn2-c2ccc(Cl)cc2)c(=O)n(C)c1=O,.,-11.8%,1.2%,.
CCC(C)(C)NC(=O)C(c1ccccc1Cl)N(C(=O)CCC(=O)Nc1cc(C)on1)C1CC1 (stereo not given),.,-8.5%,0.4%,5.6%
Cc1ccc(OCC(=O)N(Cc2ccc(C)o2)C2CCS(=O)(=O)C2)cc1 (stereo not given),.,28.9%,6.3%,3.0%
CCc1ccccc1N1CSC2=C(C#N)C(c3cc(OC)c(OC)cc3OC)CC(=O)N2C1 (stereo not given),0.3,1.1%,0.3%,3.1%
NC(=NCCc1c[nH]c2ccccc12)NS(=O)(=O)c1cc(F)ccc1F,5.1,1.5%,3.1%,-0.8%
CCOC(=O)C1=C2SCC(=O)N2C(N)=C(C#N)C1,-2.2,-14.1%,?,-4.2%
COc1cc(CC(=O)OC2CCOC2=O)cc(OC)c1OC (stereo not given),-13.3,1.0%,1.2%,-1.0%
O=C(Cc1ccc(F)cc1)OCn1nnc2ccccc2c1=O,4.9,39.1%,-3.1%,-3.3%
COc1cccc(/C=N/n2c(N)c(S(=O)(=O)c3cccs3)c3nc4ccccc4nc32)c1OC,-0.2,?,-0.8%,2.4%
COc1ccccc1NC(=O)c1cccc(NC(=O)c2ccco2)c1,0.2,4.9%,0.1%,-1.7%
Cc1ccc(NC(=S)Nc2ccccn2)cc1C,4.0,0.0%,-1.8%,-48.5%
CCOc1ccc(S(=O)(=O)N(C)c2ccc(OCC(=O)N3c4ccc(C)cc4C4CN(C)CCC43)cc2)cc1 (stereo not given),-6.4,-3.1%,-2.4%,-6.1%
O=C1CC(N2CCN(c3ccc(S(=O)(=O)N4CCOCC4)cc3)CC2)C(=O)N1Cc1ccccc1 (stereo not given),0.3,3.7%,?,1.0%
O=c1cc(N2CCc3ccccc3C2)[nH]c(=O)n1-c1ccc(Cl)cc1,-5.3,1.4%,0.4%,-4.6%
COc1ccc(C)cc1NC(=O)C1CCN(S(=O)(=O)c2c(C)noc2C)CC1,.,-2.9%,-0.3%,1.4%
# Going on with the list:
SMILES,GLA inh pH 4.5,Rango release inh,Rango complex inh,miR-21 reporter
COC(=O)c1c(C)[nH]c(C(=O)C(C)OC(=O)c2cnc(C)cn2)c1C (stereo not given),.,9.5%,3.7%,.
CN(C)CCCOc1nn(Cc2ccccc2)c2ccccc12,1.8,0.1%,0.2%,-6.5%
CN(CC(=O)Nc1ccccc1Br)C(=O)c1cc(Cl)nc2ccccc12,.,45.8%,3.8%,.
O=C(COc1ccccc1C(=O)c1cnn(-c2ccccc2)c1)Nc1ccccc1,-29.2,-9.2%,2.2%,-40.2%
CN(C)S(=O)(=O)c1ccc(Cl)c(NC(=O)CN2CCN(c3ccccn3)CC2)c1,.,-13.8%,-4.1%,1.7%
C=C(c1ccc(O)cc1)c1ccc(O)cc1,3.5,-15.6%,1.4%,0.4%
COc1cc(C2C(C#N)=C(N)Oc3n[nH]c(C)c32)ccc1OC(=O)c1ccccc1 (stereo not given),-3.7,-11.9%,-3.6%,-2.1%

# Bioassay records: PubChem BioAssay, National Center for Advancing Translational Sciences (NCATS)
